Screening data (PubChem)
HPGD inh: inhibitors of human 15-hydroxyprostaglandin dehydrogenase (HPGD) | hit rate 4.3% among 150,000 | purified HPGD, NADH fluorescence kinetic, PGE2 substrate | Potency, µM, inactives show top-dose activity change, negative = inhibition, most hits filed as inhibitors | AID 894 | P15428; active = well fitted inhibition curve with a large enough effect (not every such curve was filed as active); inconclusive = small, poorly fitted or top-dose-only effect, or another doubt; inactive = no such curve, though single readings can be large or run the other way;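 note: top concentration of the series not given in the record; plate controls included wells without enzyme; inactives centre near -10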
Target sequence (P15428 whole entry, looked up): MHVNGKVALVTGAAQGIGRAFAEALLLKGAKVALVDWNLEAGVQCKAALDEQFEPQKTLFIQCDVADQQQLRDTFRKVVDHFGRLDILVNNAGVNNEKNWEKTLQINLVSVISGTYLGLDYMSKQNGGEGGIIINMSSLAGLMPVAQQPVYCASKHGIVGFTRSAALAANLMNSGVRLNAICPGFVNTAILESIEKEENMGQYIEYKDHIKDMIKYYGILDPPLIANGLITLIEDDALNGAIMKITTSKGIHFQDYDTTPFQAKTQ
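NADH formation kinetics: reaction with 30 uM PGE2 and 1 mM NAD+ (final), 20 nM enzyme, Tris-HCl pH 8 with Tween 20, after 15 min compound preincubation at room temperature. Fluorescence change, last versus first of five reads.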
* hit, by the source's call; u = inconclusive; & = joins results of further samples. % is set by controls: 0 for no effect and ±100 for the full control effect; potency is the fitted concentration of half-maximal effect. Not all compounds are listed; rates above refer to the full screens.

SMILES | HPGD inh
CCCCCCN(C(=O)CCCCCN1C(=O)NC(c2ccc(C3CCCCC3)cc2)C(C(=O)OCc2ccccc2)=C1C)C(C(=O)NCCCC)c1ccc(OCC(=O)OC)c(C(=O)OC)c1 (stereo not drawn) | -12%
Cc1cc(N2CCN(c3ccccc3)CC2)n2nnnc2n1 | -7%
CC(=O)Nc1cc(OC(=O)c2ccco2)cc(OC(=O)c2ccco2)c1 | -9%
O=C(COc1ccc2c(c1)CCC2)NCc1ccccc1 | -27%
CCCc1cc(=O)n2[nH]c(-c3ccccc3)cc2n1 | u
CCOc1ccc(OCCNC2CCCC2)cc1 | -12%
CCOc1cc2[nH]c(=O)n(CCCCCC(=O)NCc3ccco3)c(=O)c2cc1OCC | u
O=C(CSc1cccc(C(F)(F)F)c1)NC(=O)c1ccccc1 | -16%
CC(=O)c1cccc(NC(=O)N2CCN(S(C)(=O)=O)CC2)c1 | -5%
C/C(=N\NC(=O)c1cc(-c2cccnc2)nc2ccccc12)c1ccc(O)cc1O | -23%
COCCN1C(=O)N[C@@H](CCc2ccccc2)[C@@H](C(=O)OC)[C@H]1C | -10%
c1ccc(-c2cc3ccccc3nc2N2CCCC2)cc1 | -30%

4 entries already listed, ordered by count of non-hydrogen atoms, lowest first.
SMILES | HPGD inh
CCCc1cc(=O)n2[nH]c(-c3ccccc3)cc2n1 | u
c1ccc(-c2cc3ccccc3nc2N2CCCC2)cc1 | -30%
CC(=O)Nc1cc(OC(=O)c2ccco2)cc(OC(=O)c2ccco2)c1 | -9%
C/C(=N\NC(=O)c1cc(-c2cccnc2)nc2ccccc12)c1ccc(O)cc1O | -23%

Next results follow.
SMILES | HPGD inh
C=C(C)c1cccc(C(C)(C)NC(=O)NCCCn2ccnc2)c1 | -6%
O=S(=O)(c1ccc(S(=O)(=O)N2CCN(C3CCCCC3)CC2)cc1)N1CCCCCC1 | -15%
CCNc1ccccc(-c2ccc3ccccc3n2)c1=O | -7%
N[C@H](Cc1cc(I)c(Oc2cc(I)c(O)c(I)c2)c(I)c1)C(=O)O | -5%
CC1CCN(C(=O)c2cc3nc(C4CC4)cc(C(F)(F)F)n3n2)CC1 | 1.3µM*
O=C(Nc1ccc2nc(-c3cccnc3)[nH]c2c1)C1CCCCC1 | -23%
NS(=O)(=O)c1ccc(NC(=O)CN2CCN(Cc3ccccc3)CC2)cc1 | 0%
Cc1ccc2[nH]c(=O)c(CN(CCc3ccccc3)Cc3nnnn3CC3CCCO3)cc2c1 (stereo not drawn) | -18%
COC(=O)c1ccc(NC(=O)COc2ccc(S(=O)(=O)NC(C)C)cc2)cc1 | -14%
CCOC(=O)N1CCN(c2ccc(O)cc2)CC1 | -8%
COC(=O)C1=C(C)NC(=O)NC1/C=C/c1ccccc1 (stereo not drawn) | -13%
Cc1cccc(-n2nc3c(c2NC(=O)CCC2CCCCC2)CS(=O)C3)c1C (stereo not drawn) | -12%
O=C(NC(=S)N1CCCc2ccccc21)c1ccccc1 | -10%
CN(C)S(=O)(=O)c1cccc(-c2nn(-c3ccccc3)cc2/C=C(/C#N)C(=O)NCc2ccco2)c1 | u
Cc1ccc(S(=O)(=O)N2CCN(Cc3nc4ccccc4n3C)CC2)cc1 | -9%
Brc1ccc2ncnc(NCc3ccco3)c2c1 | u
CN1CCN(CC/C=C2/c3ccccc3Sc3ccc(S(=O)(=O)N(C)C)cc32)CC1 | -10%
CCc1n[nH]c2c1C(=O)CC(C)(C)C2 | -4%
NC(N)=NCCCCN=C(N)N | -10%&-9%&-5%&-10%
O=C1C=C(O)CC(c2cccs2)C1 (stereo not drawn) | -11%
COc1ccc2c(c1)c1nc3ccccc3nc1n2CCCN1C(=O)c2ccccc2C1=O | 1%
CC(C)C(=O)N(c1ccc2oc(=O)sc2c1)S(=O)(=O)c1ccccc1 | -7%
N#C/C(=C1/CCCN1)c1ccccn1 | 3%
O=S(=O)(NCc1ccc2c(c1)OCO2)c1cnc[nH]1 | -7%
CCC(=O)NS(=O)(=O)c1cccnc1Nc1ccc(Cl)cc1 | -3%
Cc1ccc(-c2nn(CC(=O)NCC3CCCO3)c(=O)c3ccccc23)cc1 (stereo not drawn) | -3%
COc1ccc(NC(=O)CSc2nc(N)c3cc4c(nc3n2)CCCC4)cc1 | -8%
O=C(COc1ccccc1)N1CCN(S(=O)(=O)Cc2ccccc2)CC1 | -2%
COc1ccc(-c2nc(Cn3c(SCc4ccc(F)cc4)nc4ccncc43)c(C)o2)cc1OC | -15%
CCOC(=O)N1CC=C2C(C#N)=C(N)C(C#N)(C#N)[C@H](c3ccc(OC(C)C)c(OCC)c3)[C@H]2C1 | -11%
O=C1CC(C(=O)NC2CCCCC2)C(c2ccccc2)O1 (stereo not drawn) | -2%
CCOC(=O)C1CCN(C(=O)c2c(-c3c(F)cccc3Cl)noc2C)CC1 | -1%
CC1(c2ccncc2)Nc2ccccc2-c2nc3ccccc3n21 (stereo not drawn) | u
COc1ccc(C2=NOC(CN3C(=O)c4ccccc4S3(=O)=O)C2)cc1 (stereo not drawn) | 25µM*
Cc1ccc(CN2C(=O)c3ccccc3C2C(=O)NCc2cccnc2)cc1 (stereo not drawn) | -6%
Cc1cc(N2CCN(c3ccccc3)CC2)nc(-c2ccccc2O)n1 | u
C=C(C)CSc1nnc([C@H](CCSC)NC(=O)OC(C)(C)C)o1 | -13%
CSc1nc2oc3c(c2c2nncn12)CC(C)(C)SC3 | u
CCn1c(=NC(=O)CSC(C)=O)sc2cc(OC)ccc21 | -17%
CCSc1cc(N2CCOCC2)nc(-c2ccc(Cl)cc2)n1 | -16%
c1ccc(OCCSc2nc3ccccc3o2)cc1 | -20%
O=C1CCC=C1C(O)c1ccccc1 (stereo not drawn) | -13%&-4%
COC(=O)c1ccccc1NC(=O)c1ccc(COc2ccc3c(c2)CCC3)cc1 | u
Cc1cc2[nH]ncc2cc1NC(=S)NC(=O)c1ccccc1 | -26%
COc1ccc(C2C(=O)c3ccccc3C2=O)cc1 | u
N#Cc1c(SCc2ccccc2)nc(N2CCOCC2)c2c1CCCC2 | u
NNC(=O)C12CC3CC(C1)CC(n1ncnn1)(C3)C2 | -2%
COc1ccccc1N(O)C1CC(=O)N(c2ccc(F)cc2)C1=O (stereo not drawn) | 22µM*
CCOC(=O)c1nn(-c2ccccc2C)c2nc(CC(C)C)c(C#N)c(=O)n12 | -24%
O=C(O)CN1CCN(Cc2ccc(Cl)cc2)C1=O | -5%
C=CCN1/C(=C(\C#N)C2=NS(=O)(=O)c3ccccc32)N(C)c2ccccc21 | 14µM*
Oc1ccc(/C=N/NC(=S)NCC2CCCO2)cc1 (stereo not drawn) | -7%
O=C(NC(=S)Nc1ccccc1N1CCCC1)c1ccccc1[N+](=O)[O-] | 0%
CCCCC(=O)Nc1ccc(C(=O)NN2C(=O)c3ccccc3C2=O)cc1 | -7%
CC(C)Cn1c2nc3ccccc3nc2c2c(=O)n(CCN3CCOCC3)cnc21 | u
Cc1c(NS(=O)(=O)N2CCCCC2)c(=O)n(-c2ccccc2)n1C | -7%
Cc1c(C(=O)O)nn(-c2ccccc2)c(=O)c1C#N | -18%
CSCC[C@H](NC(=O)OC(C)(C)C)c1nnc(SCC(=O)Nc2c(C)cccc2C)o1 | 0%
CCOc1ccc(Cl)cc1S(=O)(=O)n1cnc2cc(C)c(C)cc21 | -19%
CC(C)(C)NC(=O)C1N(c2cccnc2)C(=O)C2C(C(=O)Nc3ccccc3F)C3(C)C=CC21O3 (stereo not drawn) | -10%

The list goes on.
SMILES | HPGD inh
O=C(CSc1nc2ccccc2c(=O)n1-c1ccccc1)N1CCN(CCO)CC1 | -6%
CCN(CC)CCNc1nc(-c2ccccc2)c2c(c1C#N)CC(C)(C)OC2 | -21%
CN1C(=O)/C(=C2\SC(=S)N(C(CCC(=O)O)C(=O)O)C2=O)c2ccccc21 (stereo not drawn) | 28µM*
COc1cc2c(cc1OC)C(c1ccc(-c3ccc(Cl)c(Cl)c3)o1)=NCC2 | -8%
COC(=O)c1nn(C23CC4CC(CC(C4)C2)C3)c2c1C(=O)N(c1ccc(Br)cc1)C2=O | -5%
Cc1ccc(N)cc1[N+](=O)[O-] | -8%
O=S(=O)(Nc1cccc(-c2nc3cccnc3s2)c1)c1ccc2c(c1)CCCC2 | u
Cc1ccc(-n2[nH]c(C)c(/C=N/Nc3ccc([N+](=O)[O-])cc3[N+](=O)[O-])c2=O)cc1 | -28%
Cc1ccc(NC(=O)c2ccn(C)n2)c(Br)c1 | -29%
CC(=O)Oc1cc(C(F)(F)F)ccc1C(=O)O | u
C=CCN1C(=O)C(Cc2ccccc2)S/C1=N/N=C/c1cccs1 (stereo not drawn) | -13%
CC(C)=CCC(C)(C)C1OCCN1C(=O)c1ccccc1 (stereo not drawn) | 6%
CCC(CC)NC(=O)CO/N=C/c1ccccc1OC(F)F | 20µM*
COC(=O)CCSc1cc(NCCOC(C)=O)c([N+](=O)[O-])c2nonc12 | -23%
CC(=O)Nc1ccc(-c2nc(C)c(C(C)=O)n2O)cc1 | -12%
CCOc1cccc(C2c3c(oc4cc(C)c(C)cc4c3=O)C(=O)N2CCCN(C)C)c1 (stereo not drawn) | -20%
O=C(c1ccncc1)N1CCC2(CC1)CCN(c1ccccc1)CC2 | -4%
O=C(N/N=C/c1ccc(O)cc1)c1ccc(COc2cc(Cl)ccc2Cl)o1 | u
CC1OC(OCC2OC(Oc3c(-c4ccc(O)c(O)c4)oc4cc(O)cc(O)c4c3=O)C(O)C(O)C2O)[C@@H](O)C(O)C1O (stereo partly drawn) | -16%
COC(=O)c1ccccc1NC(=O)CSCC(=O)Nc1ccccc1OC | -4%
CN(C)S(=O)(=O)N1CCN(S(=O)(=O)c2ccc(F)cc2)CC1 | -2%
O=C(Nc1ccn(Cc2c(F)c(F)cc(F)c2F)n1)c1ccc(COc2ccccc2Cl)cc1 | -24%
c1ccc(-c2nn3c(Cn4nnc5ccccc54)nnc3s2)nc1 | 7.1µM*
CCc1nc2scc(-c3ccc(C)cc3)c2c(=O)n1N | -4%

A draw from above in order of heavy-atom count, low to high:
SMILES | HPGD inh
Cc1ccc(N)cc1[N+](=O)[O-] | -8%
Cc1ccc(NC(=O)c2ccn(C)n2)c(Br)c1 | -29%
CCc1nc2scc(-c3ccc(C)cc3)c2c(=O)n1N | -4%
CC(C)=CCC(C)(C)C1OCCN1C(=O)c1ccccc1 (stereo not drawn) | 6%
CN(C)S(=O)(=O)N1CCN(S(=O)(=O)c2ccc(F)cc2)CC1 | -2%
c1ccc(-c2nn3c(Cn4nnc5ccccc54)nnc3s2)nc1 | 7.1µM*
O=C(c1ccncc1)N1CCC2(CC1)CCN(c1ccccc1)CC2 | -4%
COC(=O)CCSc1cc(NCCOC(C)=O)c([N+](=O)[O-])c2nonc12 | -23%
COc1cc2c(cc1OC)C(c1ccc(-c3ccc(Cl)c(Cl)c3)o1)=NCC2 | -8%
Cc1ccc(-n2[nH]c(C)c(/C=N/Nc3ccc([N+](=O)[O-])cc3[N+](=O)[O-])c2=O)cc1 | -28%
COC(=O)c1nn(C23CC4CC(CC(C4)C2)C3)c2c1C(=O)N(c1ccc(Br)cc1)C2=O | -5%
CCOc1cccc(C2c3c(oc4cc(C)c(C)cc4c3=O)C(=O)N2CCCN(C)C)c1 (stereo not drawn) | -20%
O=C(Nc1ccn(Cc2c(F)c(F)cc(F)c2F)n1)c1ccc(COc2ccccc2Cl)cc1 | -24%
CC1OC(OCC2OC(Oc3c(-c4ccc(O)c(O)c4)oc4cc(O)cc(O)c4c3=O)C(O)C(O)C2O)[C@@H](O)C(O)C1O (stereo partly drawn) | -16%

Other compounds follow:
SMILES | HPGD inh
CCCNC(=O)C1=C(C)C(=O)OC12CCC(C)CC2 (stereo not drawn) | -3%
Cc1ccc(-c2n[nH]c3c2CCC3)cc1 | u
NC(=O)CSc1ncc(-c2ccccc2)[nH]1 | -6%
CC(C)NC1=C(Cl)C(=O)c2ccccc2C1=O | u
COC(=O)CCCC(=O)OC | -3%
CCCNC(=O)c1[nH]c(C)c(C(C)=O)c1C | -18%
Cc1nc(SCc2ccc(O)c([N+](=O)[O-])c2)n[nH]1 | -15%
COc1ccccc1CNc1nc(-c2ccccc2CN(C)C)nc2ccccc12 | -5%
CN(C)NC(=S)Nc1ccc2nc(-c3ccccn3)c(-c3ccccn3)nc2c1 | -12%
CCOC(=O)c1c(CN2CCOCC2)n(-c2ccccc2)c2cc(Br)c(O)c(CN(C)C)c12 | -14%
O=C(Nc1cccc(S(=O)(=O)Nc2ccccc2Cl)c1)c1ccc(Cl)nc1 | -15%
O=c1c2ccccc2nc2n1C1(CCCCC1)Cc1ccccc1-2 | -3%
CCCC(CCC)C(=O)Nc1c[nH]c(=O)[nH]c1=O | -8%
Cc1[nH]nc2nc3c(c(OC(=O)c4ccccc4)c12)c(=O)n(C)c(=O)n3C | -21%
CC(C)C1N=C2c3ccccc3N=C(SCC(=O)c3ccc(O)c(O)c3)N2C1=O (stereo not drawn) | u
O=C(COc1ccc(F)c(Cl)c1)c1ccc[nH]1 | -19%
COc1ccc(C(=O)N2CCC3(CCN(Cc4nccs4)CC3)CC2)cc1 | -7%
N#Cc1cc2cc3c(cc2nc1SCC(=O)OC1CCCCC1)OCO3 | u
CC(=O)NNc1nc(-c2ccccc2)c2cc(Br)ccc2n1 | 3%
COc1ccc(C2CC(c3cccs3)=NN2c2nc(-c3ccccc3)cs2)cc1OC (stereo not drawn) | u
O=C(Nc1ccc(F)cc1)c1cccc(NC(=O)C2C3CC4OC(=O)C2C4C3)c1 (stereo not drawn) | -11%
CS(=O)(=O)N1N=C(c2ccc3nccnc3c2)CC1c1ccccc1 (stereo not drawn) | -27%
O=C(CSc1nnnn1-c1ccccc1)N1CCc2ccccc21 | 0%
O=C(CSc1nnc(-c2ccco2)o1)c1ccc(F)c(F)c1 | -19%
[O-]C1=N/[N+](=C/c2ccccc2Cl)CC1 | -4%
CCCCN1C(=O)c2ccc(C(=O)NCCN3C(=O)S/C(=C\c4cccnc4)C3=O)cc2C1=O | -16%
O=C(CN1CCN(c2ccccc2F)CC1)c1c[nH]c2ccc(F)cc12 | -6%
Cc1ccsc1C(=O)c1sccc1C | -20%
